# Assay outcomes: PubChem BioAssay, several laboratories
# Mtb growth: M. tuberculosis H37Rv growth inhibitors, H37Rv strain (AID 1626). M. tuberculosis H37Rv growth inhibition; higher % means a stronger effect. inhibition, % at 10 µM, or IC50 in µM where a hit was titrated. 220,000 tested, 0.95% active;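 active = confirmed in a dose series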;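 note: bacteria incubated seven days before Alamar blue readout; 0% = bacteria only wells and 100% = bacteria with antibiotic wells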
# YopH inh: blocks Yersinia enterocolitica YopH tyrosine phosphatase. inhibition, %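 (about 10 µM by stock and volumes)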. fluorescence Ex485/Em525. 140,000 tested, 0.16% active;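 active = inhibition of 50% or more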;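 note: controls were vehicle for no effect and minimum signal wells for full effect; inactives centre near -20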
# Arbovirus anti: antivirals against arbovirus infection; arbovirus infection cell-based antiviral screen; inhibition, % at 10 µM; 200,000 tested, 0.37% active; AID 1251;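 active = inhibition from about 30%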;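 note: bluetongue infection of BSR cells; cell survival read as ATP light after 72 h; 0% = infected wells without compound and 100% = uninfected wells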
# RecA splice inh: Mtb RecA intein splicing inhibition | inhibition, %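 (about 9 µM by stock and volumes)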 | AID 2221 | P9WHJ3 | 290,000 tested, 0.75% active | cell-free RecA intein splicing, fluorescence; in the data active = inhibition above about 30%;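 note: 0% = vehicle wells and 100% = reference inhibitor control wells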
# Target sequence (P9WHJ3 whole entry, looked up, canonical isoform): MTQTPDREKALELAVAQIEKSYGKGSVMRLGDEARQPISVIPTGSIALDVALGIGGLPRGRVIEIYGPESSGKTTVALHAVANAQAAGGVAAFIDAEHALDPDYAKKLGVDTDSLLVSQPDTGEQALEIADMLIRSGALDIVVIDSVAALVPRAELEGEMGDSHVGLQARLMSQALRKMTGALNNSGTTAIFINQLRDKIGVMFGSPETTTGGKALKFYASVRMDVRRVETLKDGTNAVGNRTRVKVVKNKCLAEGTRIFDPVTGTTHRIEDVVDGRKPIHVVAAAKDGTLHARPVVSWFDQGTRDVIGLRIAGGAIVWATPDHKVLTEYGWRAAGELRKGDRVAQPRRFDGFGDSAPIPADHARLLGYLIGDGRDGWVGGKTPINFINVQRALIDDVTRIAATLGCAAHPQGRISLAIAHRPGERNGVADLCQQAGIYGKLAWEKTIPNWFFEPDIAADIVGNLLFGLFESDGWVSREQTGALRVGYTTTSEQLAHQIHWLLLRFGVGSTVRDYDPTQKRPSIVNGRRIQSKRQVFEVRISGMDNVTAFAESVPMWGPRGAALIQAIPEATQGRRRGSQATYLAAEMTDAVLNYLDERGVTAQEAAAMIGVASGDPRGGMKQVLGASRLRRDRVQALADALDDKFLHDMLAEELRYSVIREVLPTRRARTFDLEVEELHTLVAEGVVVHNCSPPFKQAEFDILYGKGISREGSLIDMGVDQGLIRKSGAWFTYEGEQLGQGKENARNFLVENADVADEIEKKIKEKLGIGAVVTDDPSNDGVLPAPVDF
# Mtb betalactam: beta-lactam sensitization of Mtb H37Rv. M. tuberculosis H37Rv growth with meropenem, percent inhibition; hits of this screen are not shown here. 330,000 tested, 0.27% active. inhibition, % at 25 µM;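 active = about 74% or more and at least 40 points above the plate without the antibiotic, then above 30% in a dose series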;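 note: growth measured after seven days incubation then overnight dye step; 0% = bacteria only wells and 100% = bacteria with antibiotic; twin plates without the antibiotic show which effects depend on it; some results filed as inactive read as strong as hits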
# Arbovirus anti repeat: further read-out of Arbovirus anti, marked with its call; inhibition, %; measured here: 10K subset replicate screen; many hits read low in the repeat;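 first of two repeat runs on a subset; 0% = infected and 100% = uninfected wells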
# Active calls of the source: *; nt = no result given. These rows are one share of the data; the hit share may differ from the screen's.
SMILES,Mtb growth,YopH inh,Arbovirus anti,RecA splice inh,Mtb betalactam,others
CC(C)(C)c1nnc(NC(=O)c2cc(-c3ccccc3)nc3ccccc23)s1,23%,-34,2,2.5,79,
COC(=O)c1c(C)[nH]c(/C=N/Nc2ccccc2)c1C,25%,nt,nt,0.7,51,
CCOc1ccccc1NC(=O)CSc1cn[nH]n1,nt,nt,nt,0.5,-4,
Cc1ccc(C)c2c1N(Cc1ccccc1)C(=O)C21OCCO1,nt,nt,nt,2.2,9,
CCCNC(=O)NC(=O)CN1C(=O)NC(C)(c2ccc(C)cc2)C1=O (configuration not stated),-1%,-34,4,1.6,-6,
CN1CCCC(OC(=O)CCCC(=O)OC2CCCN(C)C2)C1 (configuration not stated),5%,-20,12,3.7,-9,
O=C(O)CC1c2ccccc2CCN1S(=O)(=O)c1ccc(F)cc1 (configuration not stated),nt,nt,nt,-2.6,-3,
Cc1ccc2nc3ccc(N4CCCCCCC4)nn3c(=O)c2c1,0%,-46,-18,-9.2,-2,
COc1cc(C=O)c(-c2c(C=O)cc(OC)c3c2OCO3)c2c1OCO2,nt,nt,nt,4.7,7,
CC(=O)N1CCc2cc(S(=O)(=O)CCC(=O)Nc3c(C)n(C)n(-c4ccccc4)c3=O)ccc21,-13%,-51,3,-0.8,1,
CC(C)c1ccc(/C=N\NC(=O)c2ccc(Cn3cccn3)o2)cc1,0%,-15,-5,1.9,-3,
O=C(N/N=C/c1ccc2c(c1)OCO2)C(O)c1ccccc1 (configuration not stated),0%,-27,-1,-4.9,2,
COCCN(C(=S)Nc1ccc(C)c(C)c1)C(C)c1ccco1 (configuration not stated),-4%,nt,2,-0.7,-3,
COc1cc(OC)nc(Oc2ccccc2/C=N/O)n1,nt,nt,nt,-1.3,5,
CCOc1ccc(OCCCC(=O)NNC(=O)c2ccncc2)cc1,nt,nt,nt,-0.9,99,
Cc1c(S(=O)(=O)N2CCC(C)CC2)c(=O)n(C)c(=O)n1C,nt,nt,nt,0.2,-3,
CN(C)S(=O)(=O)c1cc(NC(=O)COC(=O)C2CSC3(C)CCC(=O)N23)ccc1Cl (configuration not stated),3%,-17,0,-0.1,-2,
Nc1ccc(S(=O)(=O)Nc2ccc(S(N)(=O)=O)cc2)cc1,12%,-57,6,-0.9,55,
COC(=O)c1ccc(C)c(NC(=O)CCSc2ccccc2)c1,-4%,3,-6,0.7,-13,
Cc1c(NC(=O)C2CCCN2S(=O)(=O)c2ccccc2)c(=O)n(-c2ccccc2)n1C (configuration not stated),-1%,-23,3,-2.6,0,Arbovirus anti repeat=0
Cc1cccc(CSc2nnc(N)n2-c2ccccc2)c1,-3%,-29,-1,1.9,-21,
O=C(Nc1nccs1)C(F)(F)C(F)(F)C(F)(F)C(=O)Nc1nccs1,-4%,nt,nt,0.9,-8,
CC1CCCCN1CC(=O)Nc1sc2c(c1C#N)CCC2 (configuration not stated),-2%,-40,-5,-4.8,-8,
COc1ccc(NC(=O)CCCN2C(=O)C(c3ccccc3)Oc3cccnc32)cc1 (configuration not stated),nt,nt,nt,1.1,-2,
CCC1C2CC3C4N(C)c5ccccc5C45CC(C2C5O)N3[C@@H]1O (some centres not stated),nt,nt,nt,-3.9,1,

# The listing continues:
SMILES,Mtb growth,YopH inh,Arbovirus anti,RecA splice inh,Mtb betalactam,others
O=c1c2nnn(-c3ccccc3)c2ncn1C/C=C/c1ccccc1,4%,nt,3,-5.5,10,
CCN(CC)c1ccc(/C=N/N(c2ccccc2)c2ccccc2)c(O)c1,70%,-8,19,-0.5,32,
O=C(CNC(=O)c1cncc(Br)c1)Nc1ccc(F)c(F)c1F,nt,nt,nt,1.8,-2,
Cc1sc2c3ccsc3ccc2[n+]1C,-4%,nt,-8,-2.2,45,
NC(=O)CC(NC(=O)c1ccccc1)c1ccc(NC2CCCCC2)c([N+](=O)[O-])c1 (configuration not stated),-5%,nt,nt,1.2,-9,
CCOC(=O)C1CCN(C(=O)CCCn2nc(CC)n3c(cc4occc43)c2=O)CC1,nt,nt,nt,2.7,1,
CS(=O)(=O)N1CCC(C(=O)Nc2cccc(Cl)c2)CC1,4%,nt,1,-4.1,-8,
CCOC(=O)N1CCN(S(=O)(=O)c2cc(OCC(=O)NC3CCCCC3)c(C)cc2Cl)CC1,-4%,21,-7,nt,-11,
COC(=O)C1CCN(C(=O)c2ccc(Cl)c(S(=O)(=O)NCc3cccnc3)c2)CC1,7%,-41,-1,-0.9,8,Arbovirus anti repeat=-1
CN1CCN(c2ccc(-c3ccc4ccccc4n3)cc2)CC1,14%,nt,-19,-2.9,nt,
O=C(O)CNC(=O)/C=C/c1c(Cl)cccc1Cl,-4%,nt,-1,-0.7,-12,
CCN1C(=O)/C(=C2/C=Cc3ccccc3N2CC)SC1=S,8%,nt,2,3.3,5,
CCCOc1ccc(C2c3c(oc4cc(C)c(C)cc4c3=O)C(=O)N2CCCN(C)C)cc1OCC (configuration not stated),nt,-27,-3,0.5,1,Arbovirus anti repeat=5
CC(C)(Oc1ccc(Cl)cc1)C(=O)NCC1CCCO1 (configuration not stated),nt,nt,nt,-5.1,-6,
CCC(C(=O)Nc1cc(C(=O)O)ccc1C)c1ccccc1 (configuration not stated),1%,nt,7,-1.7,-2,
O=C(COc1ccc(Cl)cc1)Nc1ccccc1C(=O)NCc1ccco1,11%,-20,-8,0.5,13,
Cc1cc(C)cc(NC(=O)Cn2nnc(C(=O)NCc3ccc(F)cc3)c2N)c1,nt,nt,nt,0.1,5,
CCN(CC)c1nc2c(c(=O)[nH]c(=O)n2C)n1CCCc1ccccc1,nt,nt,nt,0.5,3,
COc1cc(OC)c(NC(=O)C(=O)CC(=O)c2ccc(C)cc2C)cc1Cl,54%,nt,-15,-10,59,
Cc1nn(-c2ccccc2)nc1C(=O)NNC(=O)c1cccc2ccccc12,-5%,nt,nt,3.6,3,
CCn1cc(C(=O)O)c(=O)c2cnc(N3CCN(C(=S)NC(=O)c4ccc(F)c(F)c4)CC3)nc21,nt,nt,nt,-2.3,-5,
COc1ccc(Cl)cc1NC(=O)CN1CCC(n2nnc3cc(C)ccc32)CC1,-3%,-11,-8,-2.5,-10,
CN1CCN(c2ccc(C(F)(F)F)cc2N)CC1,-6%,nt,-6,-1.3,5,
Cc1ccc(NC(=O)C2CCN(S(C)(=O)=O)CC2)cc1,-4%,0,4,-0.9,-10,
CC(C)C(C(=O)Nc1ccc2c(c1)OCO2)N1C(=O)c2ccccc2C1=O (configuration not stated),-6%,-8,-1,1.9,-19,

# Three entries drawn at random from the list so far, as already listed:
SMILES,Mtb growth,YopH inh,Arbovirus anti,RecA splice inh,Mtb betalactam,others
COC(=O)c1c(C)[nH]c(/C=N/Nc2ccccc2)c1C,25%,nt,nt,0.7,51,
CC(C)c1ccc(/C=N\NC(=O)c2ccc(Cn3cccn3)o2)cc1,0%,-15,-5,1.9,-3,
CCOC(=O)C1CCN(C(=O)CCCn2nc(CC)n3c(cc4occc43)c2=O)CC1,nt,nt,nt,2.7,1,

# Of the compounds above, these have an NH in an aromatic ring:
SMILES,Mtb growth,YopH inh,Arbovirus anti,RecA splice inh,Mtb betalactam,others
COC(=O)c1c(C)[nH]c(/C=N/Nc2ccccc2)c1C,25%,nt,nt,0.7,51,
CCOc1ccccc1NC(=O)CSc1cn[nH]n1,nt,nt,nt,0.5,-4,
CCN(CC)c1nc2c(c(=O)[nH]c(=O)n2C)n1CCCc1ccccc1,nt,nt,nt,0.5,3,

# Next part:
SMILES,Mtb growth,YopH inh,Arbovirus anti,RecA splice inh,Mtb betalactam,others
C=CCn1c(SCC(=O)Nc2nc(C)cs2)nnc1C(CO)NC(=O)c1ccccc1 (configuration not stated),-3%,-4,2,1.6,1,
CCn1c(SCc2ccccc2)nc2ccccc2c1=O,nt,nt,nt,15,63,
CCOC(=O)N1CCC(NS(=O)(=O)c2ccccc2)CC1,9%,nt,nt,-1.4,4,
O=C(O)CCC(=O)N1CCc2cc(S(=O)(=O)NCc3ccc(Cl)cc3)ccc21,nt,nt,nt,-5.0,3,
Cc1cc(C)n(-c2nnc(C)c(=O)[nH]2)n1,-3%,-34,-5,-5.5,-4,
CCn1c(NCc2ccc3c(c2)OCO3)nc2ccccc21,-7%,-84,4,2.5,-6,
O=C(NCc1ccncc1)c1nc(-c2cccs2)no1,3%,nt,2,-1.0,0,
O=C(N/N=C/C=C/c1ccccc1)c1cnccn1,-12%,-21,12,-0.1,3,
Cc1ccc(CSc2nnc(-c3cccc(S(=O)(=O)N4CCOCC4)c3)n2C2CCCC2)cc1,13%,-12,3,10,-12,
COc1nc2ccc(C)cc2cc1-c1noc(-c2cccnc2)n1,2%,-15,5,-0.1,7,
COc1ccc(N=Cc2cc(Cl)ccc2O)cc1Cl,7.5µM*,nt,-1,4.3,5,
Cc1ccc(S(=O)(=O)N(C)c2ccc(NS(C)(=O)=O)cc2)cc1,-6%,-100,7,1.6,-8,
CCN(CC)c1nc(N2CCN(CCO)CC2)nc2ccccc12,nt,nt,nt,-0.7,0,
COC(CNC(=O)C1CCN(S(=O)(=O)c2ccc3nc4c(c(C(=O)O)c3c2)CC(C)CC4)CC1)OC (configuration not stated),nt,nt,nt,-3.7,2,
O=[N+]([O-])c1cccnc1SCc1c(F)cccc1Cl,6%,nt,nt,nt,8,
Cc1ccc(OCCOc2cccc(Br)c2)c([N+](=O)[O-])n1,9%,-19,-2,0.5,2,
O=C1c2cccc3cc([N+](=O)[O-])cc(c23)C(=O)N1CCN1CCCC1,4.6µM*,nt,nt,-181,nt,
O=C(Nc1ncccc1O)c1cccc(S(=O)(=O)N2CCCc3ccccc32)c1,nt,nt,nt,3.0,3,
Cn1c(=O)c2c(SCC(=O)c3ccccc3)nc(C3CC3)nc2n(C)c1=O,5%,nt,-5,0.4,0,Arbovirus anti repeat=-3
Cc1ccc(CNC(=O)Cc2ccc(-c3ccccc3)cc2)cc1,11%,-28,-19,0.2,-1,
CC(C)c1ccc(C(=O)Nc2nnc(S(=O)(=O)N3CCOCC3)s2)cc1,nt,nt,nt,-0.2,-2,
CCCc1nnc(SCC(=O)N2C(C)CCCC2C)n1CCCOC (configuration not stated),-6%,-33,-1,0.3,-10,
COc1ccc(C2CC(c3ccccc3)=NN2C(=O)COC(=O)c2cccnc2Cl)cc1 (configuration not stated),9%,8,14,4.5,-2,
O=C(Nc1ccccc1C(=O)NC(Cc1c[nH]c2ccccc12)C(=O)O)c1ccco1 (configuration not stated),-4%,-27,8,0.0,2,Arbovirus anti repeat=10
Cc1ccc(Sc2ccc(N)cn2)cc1,13%,nt,nt,-0.6,76,

# Remaining list, next part
SMILES,Mtb growth,YopH inh,Arbovirus anti,RecA splice inh,Mtb betalactam,others
CCOc1ccc(NC(=O)CN(C)C(=O)COc2cccc(CC)c2)cc1OCC,nt,nt,nt,-0.3,-2,
CN(Cc1ccccc1)C(=O)COC(=O)CCNC(=O)c1ccccc1Cl,-1%,nt,2,3.0,-13,
Cn1cc(/C=C(\C#N)C(=O)Nc2ccccc2O)c2ccccc21,nt,nt,nt,6.3,6,
Cc1nnc(C)c2c(C)n(C(C)c3ccccc3)c(C)c12 (configuration not stated),-11%,-4,6,3.7,18,
O=C(CSc1ccc(-c2ccccn2)nn1)N1CCCC1,-2%,nt,0,1.1,-6,
CS(=O)(=O)N(CC(=O)N1CCCCC1)c1ccc2c(c1)OCO2,-3%,-28,8,-1.1,-9,
O=C(O)CSc1ncnc2sc3c(c12)CCCC3,-2%,nt,3,1.4,-3,
Cc1ccc(S(=O)(=O)N2CCN(C(=O)C3CCCCC3)CC2)cc1,-2%,-33,8,-2.8,1,
O=C(c1nc2ccc(Cl)cn2c1CN1CCC(O)CC1)N1CCc2ccccc2C1,nt,nt,nt,1.6,-13,
COc1ccc(NC(=O)CSCC(=O)N(C)Cc2cccc(OC)c2OC)cc1,nt,nt,nt,-0.9,-8,
COc1cccc(-c2ccc(C#N)c(=O)[nH]2)c1,-3%,nt,3,-0.7,-3,
COC(=O)CSc1nnc(CNC(=O)c2ccccc2F)n1-c1ccc(F)cc1,-4%,nt,7,-6.1,-6,
C=CCN(c1ccccc1)S(=O)(=O)c1ccc(Cl)c(C(=O)OCC(=O)c2[nH]c(C)c(C(C)=O)c2C)c1,-3%,-20,-3,2.1,-1,
Cc1ccc(C(=O)c2ccc(O)cc2)cc1C,-5%,-20,2,nt,30,
CSCC[C@H](NC(=O)NCc1ccc(F)cc1)C(=O)O,-3%,-8,2,0.5,-11,
O=C(NCc1ccc(F)cc1)c1c2c(nc3ccccc13)CCC2,8%,nt,6,-3.8,-4,
COc1ccc(C(=O)N/C(=C\c2cn(S(=O)(=O)N(C)C)c3ccccc23)C(=O)NCCCn2ccnc2)cc1,nt,nt,nt,-3.7,-3,
Cc1ccc(S(=O)(=O)N2CCN(c3nc(C(C)C)c4c(c3C#N)CC(C)(C)OC4)CC2)cc1,-1%,8,-4,-0.8,-3,
CCCCn1c(=O)c(C=Nc2cc([N+](=O)[O-])ccc2OC)c(O)n(CCCCl)c1=O,1%,-48,2,0.7,9,
CC(=O)Nc1ccc(N/C(C)=C/C(=O)c2cccnc2)cc1,-5%,-35,1,3.9,-6,
